MLL AF4-AF9 inh – blocks AF4 peptide binding to human AF9. P42568. AlphaScreen, biotin-AF4 peptide binding to FLAG-AF9. inhibition, % at 10 µM. 350,000 compounds, 0.47% hits. AID 651704;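 active means every replicate reaching a set inhibition limit, whatever the replicate mean, cut at about 25% in these data; inconclusive means mean inhibition reaches that limit but some replicates miss it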;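 further: 0% = plate neutral control median and 100% = total signal loss; the record names both 10 and 1 µM as test concentration; the first replicate is given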
Target sequence (P42568 whole entry, looked up): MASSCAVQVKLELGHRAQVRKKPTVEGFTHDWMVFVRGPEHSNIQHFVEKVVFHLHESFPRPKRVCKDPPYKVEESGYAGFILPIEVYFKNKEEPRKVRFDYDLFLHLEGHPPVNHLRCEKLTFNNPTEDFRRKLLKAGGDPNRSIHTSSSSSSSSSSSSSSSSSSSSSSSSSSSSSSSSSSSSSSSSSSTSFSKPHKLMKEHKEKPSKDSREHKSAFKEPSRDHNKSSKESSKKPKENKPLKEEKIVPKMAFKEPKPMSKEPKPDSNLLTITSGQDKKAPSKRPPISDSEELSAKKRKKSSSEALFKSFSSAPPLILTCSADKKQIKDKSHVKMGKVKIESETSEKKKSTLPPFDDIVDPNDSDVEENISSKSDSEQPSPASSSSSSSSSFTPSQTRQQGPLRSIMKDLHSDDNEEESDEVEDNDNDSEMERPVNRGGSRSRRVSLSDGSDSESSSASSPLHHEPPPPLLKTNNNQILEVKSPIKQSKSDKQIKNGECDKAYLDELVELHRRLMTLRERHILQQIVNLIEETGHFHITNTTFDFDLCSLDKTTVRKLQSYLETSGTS
FGF22 binding – binders of recombinant human FGF22 by thermal shift; SYPRO orange fluorescence; percent of sucrose octasulfate shift, DMSO zero; calls only at 9.99 µM; 340,000 compounds, 1.5% hits; AID 651658;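 active means melting point raised past a set limit in the mean and every replicate; inconclusive means no clear call; three in four hits are not shown here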
Vif TR-FRET – HIV-1 Vif–A3G interaction blockers – biochemical, TR-FRET, GST-Vif 1-94, biotin-A3G peptide, dose response retest, primary screen (AID 1117319); 260,000 compounds, 0.57% hits; TR-FRET GST-Vif / biotin-A3G peptide binding; higher % means a stronger effect; test concentration not given here; strong numbers were not always called active; inhibition, %; hits with a dose series show IC50 in µM;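 active means above the screen mean plus three standard deviations and confirmed in dose response; inconclusive means results disagree or hit not tested in dose response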;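 further: Vif residues 1-94 fused to GST binding biotinylated APOBEC3G peptide 110-148; 0% = full assay without inhibitor and 100% = GST in place of GST-Vif; retest series ran down from 100 µM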
Ecoli rRNA inh – inhibits bacterial ribosomal RNA function over humanized ribosomes | GFP signal change (wild-type ribosome), % (test concentration not listed) | E. coli WT GFP vs humanized-ribosome RFP mutants, fluorescence, 24 h; hits give low values; DMSO median 0, no signal -100 | 350,000 compounds, 1.6% hits;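 active means significant combined selectivity score with lowered wild-type GFP, culture density cut under 30%, mutant RFP and density less affected; inactive means any of these conditions unmet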; further: one replicate is shown; some compounds called inactive have numbers as strong as hits
ALR inh – human ALR oxidase inhibition via reduced H2O2 | inhibition, % (no concentration beside the values) | AID 485317 | purified ALR, DTT oxidation, H2O2 HRP-luminol luminescence | P55789 | 290,000 compounds, 3.8% hits;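 active means mean and each replicate at 75% or more; inconclusive means only one of the two met; inactive means neither met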;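 further: stock transfer was 7.5 nL into about 7.5 µL; 0% = neutral wells and 100% = wells with inactivated enzyme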
Ecoli growth – inhibitors of Escherichia coli growth | OD600, 23 h; hits give low values | OD600 absorbance (test concentration not listed) | 330,000 compounds, 0.21% hits | AID 1053175;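 active means OD600 absorbance below the run mean of sample wells minus 3.6 SD, in any replicate, cut at about 0.56 in these data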;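 further: stock transfer was 300 nL into about 60 µL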
HNF4A DNA FP – change in binding of human HNF4 alpha to DNA; P41235; HNF4a-FITC DNA binding, fluorescence polarization, 1 h; activity change, % at 10 µM; 360,000 compounds, 0.3% hits; in the data active means activity change above about 30%, passing the limit was not always enough;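 further: controls were the assay level and a saturating level of protein; the project sought stronger binding though the title names inhibitors; some compounds called inactive have numbers as strong as hits; positive values seem to mean higher polarization but the record does not say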
Target sequence (P41235 whole entry, looked up): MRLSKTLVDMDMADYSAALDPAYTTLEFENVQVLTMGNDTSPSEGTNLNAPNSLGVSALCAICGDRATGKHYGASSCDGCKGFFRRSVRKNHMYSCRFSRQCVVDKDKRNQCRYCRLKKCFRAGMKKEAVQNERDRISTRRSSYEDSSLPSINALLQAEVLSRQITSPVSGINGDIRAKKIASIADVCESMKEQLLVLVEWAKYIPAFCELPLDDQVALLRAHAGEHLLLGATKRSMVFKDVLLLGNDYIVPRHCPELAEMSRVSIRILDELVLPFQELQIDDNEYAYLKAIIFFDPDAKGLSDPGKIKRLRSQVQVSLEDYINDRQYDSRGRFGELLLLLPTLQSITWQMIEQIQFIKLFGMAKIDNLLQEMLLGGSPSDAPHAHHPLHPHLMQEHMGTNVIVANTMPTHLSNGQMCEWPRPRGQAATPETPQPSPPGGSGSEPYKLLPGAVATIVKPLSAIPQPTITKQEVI
Ecoli rRNA inh OD600 – further read-out of Ecoli rRNA inh, marked with its call; OD600 change, %; measured here: OD600 growth;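 optical density of the mix in the first replicate; 0 = DMSO median and -100 = no signal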
Ecoli rRNA inh RFP – second read-out of Ecoli rRNA inh, no call of its own (marks repeat the call); RFP signal change, %; measured here: RFP humanized mutant strains;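 first replicate; 0 = DMSO median and -100 = no signal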
Active calls of the source: *; i = inactive; u = inconclusive; x = not tested or not shown; & = joins results of further samples. A portion of the library (hit frequency here may not be typical).

FGF22 binding	ALR inh	Ecoli rRNA inh OD600	Ecoli rRNA inh RFP	MLL AF4-AF9 inh	Ecoli rRNA inh	HNF4A DNA FP	Vif TR-FRET	Ecoli growth	structure
i	2	-5	7.2	3.7	-10	1.9	x	0.69	Cc1[nH]c2c(C(=O)N3CCCC(CCC(=O)NCc4ccccc4F)C3)cccc2c1C (centres undefined)
x	x	x	x	x	x	1.9	-1%	0.71	O=C(NCc1cccs1)C1CCCN(S(=O)(=O)c2cccs2)C1 (centres undefined)
i	-8	-10	1.2	2.1	-18	-0.9	x	0.7	COc1ccc(NC(=O)C2CCN(S(=O)(=O)c3ccc4c(c3)CC(C)N4C(C)=O)CC2)cc1OC (centres undefined)
i	-19	-10	-5.1	-2.6	-13	-5.7	x	0.69	COc1ccccc1N(CC(O)COc1ccc(C)cc1)S(=O)(=O)c1ccccc1 (centres undefined)
x	-3	x	x	x	x	1.4	8%	0.72	O=C(NCCCN1CCOCC1)c1ccc(Cl)c(S(=O)(=O)N2CCCCCC2)c1
i	-2	-26	1.2	-10	-5	4.8	x	0.74	Nc1ccn(CC(=O)NCCc2ccccn2)c(=O)n1
i	x	3	-0.2	-2.6	2	x	x	x	C[C@@H]1CCCCO[C@H](CN(C)CC2CC2)[C@H](C)CN([C@@H](C)CO)C(=O)c2cc(NC(=O)CCC(F)(F)F)ccc2O1
i	5	x	x	-1.3	x	4.5	x	0.63	COc1ccc(OC)c(C(O)CNC(=O)CN)c1 (centres undefined)
i	4	14	0.7	0.4	15	3.6	-5%	0.69	O=C(NCCNC(=O)c1cccnc1)c1ccc(Br)cc1
i	x	7	-1.8	-1.0	3	x	x	x	C[C@H]1CN([C@@H](C)CO)C(=O)c2cccc(NS(=O)(=O)c3ccc(F)cc3)c2O[C@@H]1CN(C)Cc1ccncc1
i	x	-25*	-11*	-1.3	-35*	-2.2	14%	0.65	O=C(COc1ccc(Cl)cc1)Nc1nnc(-c2ccco2)o1
x	8	x	x	x	x	-2.6	2%	0.76	CC1(C)CC2(CC(C)(C)NC(=O)N2)NC(=O)N1
i	-2	12	0.0	0.1	14	2.9	x	0.72	NC(=O)c1cc(S(=O)(=O)NCc2cccs2)cs1
i	x	14	1.0	-16	7	-0.6	x	x	S=c1[nH]ncn1/N=C/c1ccco1
x	-14	2	3.5	1.5	-3	-0.9	-2%	0.69	CC(=O)Nc1ccc(Sc2ccccc2C(=O)N2CCCC2)cn1
x	-10	x	x	x	x	4.2	-5%	0.74	O=C1CC(C(=O)Nc2ccccc2)N=C(N2CCCCC2)N1 (centres undefined)
x	-8	x	x	x	x	-0.1	-1%	0.71	CCOC(=O)c1sc(NC(=O)c2ccc(Br)o2)cc1C
i	-4	12	-0.2	1.3	12	2.8	-4%	0.68	O=C(CNC(=O)c1ccccc1Cl)NCCc1cccs1
i	-3	18	-2.5	-0.3	6	-1.0	-6%	0.68	COCCCNC(=O)C1CCC(=O)N(c2ccc3c(c2)OCO3)C1c1ccc(OC)cc1 (centres undefined)
i	54	-35	4.6	13	-16	-1.8	-4%	0.7	CCOC(=O)c1nc(Nc2ccc(N3CCC(C)CC3)cc2)c2ccccc2n1
x	38	x	x	x	x	-1.4	7%	0.57	O=C(Nc1ccc(Cl)c(Cl)c1)Oc1ccc(NC(=O)c2ccco2)cc1
x	-5	x	x	x	x	1.1	-8%	0.74	CCCC(c1nnnn1CCC(C)C)N1CCC(C(N)=O)CC1 (centres undefined)
i	-7	-7	0.2	3.7	-12	3.0	-6%	0.65	COC(=O)c1ccc(C)c(NS(=O)(=O)c2ccc(OC)cc2)c1
x	x	x	x	x	x	-1.2	4%	0.72	Cc1ccc(C2Oc3ccccc3C3=C2C(c2cccs2)n2ncnc2N3)cc1 (centres undefined)
x	-3	x	x	x	x	1.8	u	0.77	CC1=CC(C)(C)Nc2ccc(OS(=O)(=O)c3ccc(C)cc3)cc21
x	-5	x	x	x	x	-0.6	25%	0.71	O=C(O)CCCCCn1c(SCC(=O)N2CCCC2)nc2ccsc2c1=O
i	x	1	2.3	1.4	11	3.4	x	0.66	COCCn1c(SCc2nc3ccccc3c(=O)[nH]2)nc2ccccc2c1=O
x	x	-4	-5.5	x	5	-5.8	3%	0.68	CSc1nc(-c2ccccc2)c(C#N)c(=O)[nH]1
i	x	-1&3	-2.2&0.7	1.1&-1.5	-1&15	-4.7	-1%	0.72	C[C@H](CO)N1C[C@H](C)[C@@H](CN(C)C(=O)NC2CCCCC2)Oc2ccc(NC(=O)Cc3ccccc3)cc2C1=O
i	21	7	3.0	-1.7	6	1.8	9%	0.68	Cc1nnc(NC(=O)CSc2n[nH]c(-c3ccccc3)n2)s1
x	-11	x	x	x	x	-3.5	26%	0.74	CCN(CC)c1ccc(N2C(=O)/C(=C/c3cccnc3)SC2=S)cc1
i	x	0	-0.5	-2.8	1	x	x	x	CN(C)CC(=O)N1[C@H](C(=O)NC2CCCC2)[C@@H](CO)[C@@H]2Cn3c(ccc(-c4ccc(F)cc4)c3=O)[C@@H]21
i	x	1	-0.5	0.6	5	0.4	7%	0.72	Cc1ccc(S(=O)(=O)n2c3ccc(Cl)cc3c3nc(C)sc32)cc1
i	11	8	3.6	4.1	0	5.1	-2%	0.69	CC1(c2ccc([N+](=O)[O-])cc2)Nc2ccccc2S1 (centres undefined)
i	x	x	x	-0.4	x	-1.0	x	x	CC(O)C1CCC2C3CCC4CC(O)CCC4(C)C3C(=O)CC12C (centres undefined)
i	4	6	-1.2	0.1	6	1.9	-4%	0.64	CCN(C(=O)COC(=O)c1cccs1)c1c(N)n(Cc2ccccc2)c(=O)[nH]c1=O
i	-11	3	-3.0	-1.1	1	-2.7	6%	0.68	CCOC(=O)C1(Cc2cccc(F)c2)CCN(CC2CC2)CC1
x	18	x	x	x	x	-1.2	-3%	0.72	CN(C)N=Nc1ccc(S(=O)(=O)N2CCSC2C(=O)O)cc1 (centres undefined)
i	-5	0	3.4	-1.7	6	1.5	x	0.7	Cc1cc(C(=O)NC(C)CCC(C)C)c2ccccc2n1 (centres undefined)
i	-6	-14	-18	0.3	2	4.1	x	x	CCOc1ccc(Br)cc1C1=CC(=O)C[C@H](c2ccc(OC)cc2)C1
i	0	16	1.6	-0.2	5	3.9	x	0.64	Cn1ccc(NC(=O)Nc2cccc(C(F)(F)F)c2)n1
i	-6	-4	-0.5	-2.5	-4	2.1	23%	0.65	CSC1=NNC(c2ccc(C(C)(C)C)cc2)=NN1
i	-24	11	-0.5	-0.9	53	-119	x	0.71	Cc1ccc[n+](-c2nc([O-])sc2C=O)c1
i	18	-6	1.9	-3.9	-5	-3.3	x	0.66	COc1ccc(CC(=O)NC(=S)Nc2cccc(CO)c2)cc1
i	-4	-1	3.1	x	18	-1.6	72%	0.67	COC(=O)c1ccc(S(=O)(=O)N2CCN(CCO)CC2)n1C
i	2	6	0.7	4.2	4	-2.0	x	0.55	COCCn1c(COc2cccc(OC)c2)nnc1SCC(=O)NC1CCCCC1
i	29	3	5.9	-15	2	1.9	16%	0.67	COc1ccccc1C(=O)Nc1ccc(S(=O)(=O)Nc2onc(C)c2C)cc1
x	-4	x	x	x	x	2.3	10%	0.66	COC(=O)Cc1ccc(NC(=O)c2cccs2)cc1

Next part (three carried over from the part before).
FGF22 binding	ALR inh	Ecoli rRNA inh OD600	Ecoli rRNA inh RFP	MLL AF4-AF9 inh	Ecoli rRNA inh	HNF4A DNA FP	Vif TR-FRET	Ecoli growth	structure
i	2	6	0.7	4.2	4	-2.0	x	0.55	COCCn1c(COc2cccc(OC)c2)nnc1SCC(=O)NC1CCCCC1
i	29	3	5.9	-15	2	1.9	16%	0.67	COc1ccccc1C(=O)Nc1ccc(S(=O)(=O)Nc2onc(C)c2C)cc1
x	-4	x	x	x	x	2.3	10%	0.66	COC(=O)Cc1ccc(NC(=O)c2cccs2)cc1
i	-3	13	-4.6	0.5	8	-3.5	22%	0.7	Cc1cc(Br)ccc1NC(=O)CNC(=O)CNc1cccc([N+](=O)[O-])c1
x	31	x	x	x	x	-1.1	0%	0.71	O=c1[nH]c(CN2CCN(c3ccccc3)CC2)nc2ccccc12
x	91*	-18	-5.9	14	-11	0.5	9%	x	COc1cc(-c2nc3ccc(C)cn3c2Nc2ccc3c(c2)OCCO3)ccc1O
i	x	-9	-0.7	5.4	-3	4.7	x	x	COc1ccccc1-c1cccc([C@@H]2C[C@H]3[C@H](CON3C)CN2S(=O)(=O)c2ccccc2C)c1
i	x	-13	-0.6	0.4	-3	x	x	x	CC(C)C#Cc1ccc2c(c1)O[C@H](CN(C)S(C)(=O)=O)[C@H](C)CN([C@@H](C)CO)S2(=O)=O
i	x	18	0.5	0.6	6	-1.7	-2%	0.71	NS(=O)(=O)c1ccc(CCNC(=O)COC(=O)CCN2C(=O)C3CC=CCC3C2=O)cc1 (centres undefined)
x	17	x	x	x	x	1.0	8%&-6%	0.7	CCOc1cc(C2C(C(=O)c3ccccc3)=C(C(=O)OC)Nc3nnnn32)ccc1O (centres undefined)
i	-11	15	-1.4	-0.2	3	9.8	-1%	0.7	CCc1ccc(NC(=S)N2CCN(C)CC2)cc1
i	-8	-34	0.9	31*	-40	2.5	x	0.67	Cc1ccc(C(=O)c2oc3ccc(Cl)cc3c2NC(=O)CN2CCN(C)CC2)cc1
i	-3	13	1.7	-2.3	10	4.2	-9%	x	C/C(CC(=O)Nc1ccccn1)=N\NC(=O)c1cccc(C)c1
i	-3	4	-0.5	3.3	5	-0.8	-50%	0.66	Cc1nc(Nc2ccc3c(c2)OCCO3)c2c(C)c(C)sc2n1
i	x	25	2.8	-2.4	21	-0.8	-13%	x	CC(C)(C)OC(=O)[C@H](Cc1ccccc1)NC(=O)c1ncn2c1c(=O)[nH]c1ccc(Br)cc12
i	2	7	6.0	-1.1	16	-2.5	-9%	0.67	CC(=O)Nc1c2c(nn1-c1ccc(C)cc1)CS(=O)(=O)C2
x	0	-8	-2.2	x	-6	-1.1	-2%	0.72	Cn1c(NCc2cccnc2)nc2c1c(=O)n(Cc1ccccc1F)c(=O)n2C
x	12	x	x	x	x	0.2	3%	0.67	COc1ccccc1N1CCN(C(=O)Cn2nc(C(F)(F)F)c3c2CCC3)CC1
x	0	x	x	x	x	64*	-1%	0.77	COC(=O)c1c(NC(=O)c2ccco2)sc2c1CCC2
i	x	10	3.2	u	7	-3.9	x	x	COc1ccc(C(=O)NCC(C)(C)N2CCOCC2)cc1S(=O)(=O)NCc1ccc(Cl)cc1
x	4	x	x	x	x	0.3	5%	0.71	O=C(C1=C(O)C(=O)N(Cc2ccccc2)C1c1ccco1)c1ccco1 (centres undefined)
i	x	-6	-1.1	0.7	1	x	x	x	COc1ccc(S(=O)(=O)N[C@H]2CC[C@H](CCNC(=O)Cc3ccccn3)O[C@@H]2CO)cc1
x	-6	x	x	x	x	-1.1	1%	0.69	Cc1nn(-c2ccc(F)cc2)c2sc(C(=O)N3CCCCCC3)cc12
i	x	5	0.5	-0.7	9	-3.4	-7%	0.71	COc1ccc(N2C(=O)CSC2c2ccc(F)cc2)cc1 (centres undefined)
i	-7	15	-6.9	-1.9	8	3.2	-4%	0.7	O=C(NCCCN1CCOCC1)c1cc(S(=O)(=O)N2CCOCC2)ccc1Cl

Screening data (PubChem BioAssay)
